# TRPV1 potentiator – human TRPV1 potentiation. TRPV1-expressing cells, Fluo-8 calcium influx, capsaicin EC20 potentiation; host cell line not named in the record; control for the full effect not named in the record. potentiation, % at 8.33 µM. actives 0.02% (n = 320,000); active means potentiation above 80%; inconclusive means 30% to 80%; inactive means below 30%; also: 0% is about no effect
#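 Cells expressing TRPV1 were dye-loaded with Fluo-8 and read kinetically: 10 s baseline, 3 min after compound (agonist portion), then 2 min after EC20 capsaicin (allosteric enhancer portion). Calcium-bound dye fluorescence at 480/520 nm.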
# gsp ag – agonists of gsp mutant (McCune-Albright syndrome); gsp mutant cells, cAMP HTRF, 30 min; control for the full effect not named in the record; Potency, µM (doses to about 76.9 µM), without a hit: top-dose activation (cAMP increase), most hits filed as activators; actives 0.13% (n = 340,000); AID 624287; active = well fitted activation curve with a large enough effect; inconclusive = small, poorly fitted or top-dose-only effect, or another doubt; inactive = no such curve, though single readings can be large or run the other way; cell line not stated here;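 also: phosphodiesterase inhibitor Ro 20-1724 added with compounds to block cAMP breakdown; potency is read from the fitted curve at half-maximal effect; nearly all actives have a fitted effect of over 60% in size; about a fifth of the inactives were tested at one dose only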
#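 Cells in DMEM/10% FBS with G418 were pretreated with compounds in DMSO plus […] (300 uM stock) for 30 min at 37C. cAMP was measured by HTRF (cAMP-d2 plus anti-cAMP antibody-K) after 30 min at room temperature.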
# gsp antag – antagonists of gsp mutant (McCune-Albright syndrome). gsp-mutant cells, cAMP HTRF, 30 min; control for the full effect not named in the record. Potency, µM (titrated, usually from 76.9 µM), inactives show at the highest dose activity change, negative = inhibition, actives largely listed as inhibitors. actives 0.4% (n = 340,000); active = falling curve of any shape with a large fitted effect; inconclusive = falling curve, mostly with a smaller effect; inactive = flat or rising curve; cell line not stated here;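 also: intracellular cAMP measured with PDE inhibitor Ro 20-1724 present during compound exposure; potency is read from the fitted curve at half-maximal effect; % is scaled to controls: 0 for no effect and ±100 for the full control effect; nearly all actives have a fitted effect of over 65% in size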
#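 Cells, 2000/well, grown 16–24 h in DMEM 10% FBS with 0.5 mg/ml G418, then compounds plus […] (300 uM addition stock), 30 min at 37C. cAMP read by HTRF (cAMP-d2 and anti-cAMP antibody-K in lysis buffer) after 30 min RT.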
# Menin-MLL FL inh – inhibitors of human menin-MLL interaction, wild-type MLL peptide; Fluorescence polarization, fluorescein-MLL peptide displacement from menin; 290,000 tested, under 10 active; AID 1766; FP activity change, % at 61.4 µM; inconclusive = falling polarisation curve, or a change in total fluorescence; inactive = total fluorescence flat and polarisation flat or rising; no compound was filed as active; the % refers to the polarisation; negative = inhibition;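 also: % of control where 0% means no effect; inhibitors lower the polarisation; unlabelled MLL peptide was the positive control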
# ClpP mod – qHTS Assay for Activators of ClpP | ATP-dependent Clp protease proteolytic subunit (Bacillus subtilis (strain 168)), P80244 | purified B. subtilis ClpP, FRET peptide cleavage, 20 min | Potency, µM (doses to about 57.5 µM), inactives show top-dose activity change, negative = active | actives 1.9% (n = 340,000) | AID 651965, 2013; active = well fitted falling curve with a large enough effect; inconclusive = small, poorly fitted or top-dose-only effect; inactive = no such curve, though single readings can be large or run the other way; also: potency is read from the fitted curve at half-maximal effect; the source files actives as falling curves though it sought activators and does not explain the sign; nearly all actives have a fitted effect of over 65% in size; many hits overshoot -100%
# Target sequence (P80244 whole entry, looked up): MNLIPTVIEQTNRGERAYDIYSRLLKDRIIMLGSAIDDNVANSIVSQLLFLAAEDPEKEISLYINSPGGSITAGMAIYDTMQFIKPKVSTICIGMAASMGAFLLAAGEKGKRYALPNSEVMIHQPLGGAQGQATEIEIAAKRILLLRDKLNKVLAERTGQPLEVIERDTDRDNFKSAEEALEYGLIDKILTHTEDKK
#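 Purified B. subtilis ClpP, 10 microg/mL final in Tris/HCl pH8 with KCl, BSA, glycerol and Tween-20, cleaved an Abz/nitrotyrosine-quenched decapeptide. Fluorescence (ex 320, em 430) was read at 0 and 20 min at room temperature. Delta was normalized to 5.8 microM ADEP and DMSO/no-enzyme controls.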
# Sfp PPTase inh – Sfp phosphopantetheinyl transferase inhibition; AID 1490; actives 3.5% (n = 310,000); Potency, µM, for inactives: max response, negative = inhibition, hits mostly inhibitors; Q9F4F7; Biochemical Sfp PPTase activity, qHTS; active = well fitted inhibition curve with a large enough effect; inconclusive = small, poorly fitted or top-dose-only effect, or another doubt; inactive = no such curve, though single readings can be large or run the other way;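 also: the enzyme is Sfp with the accession as filed and its product quenches rhodamine fluorescence; potency is read from the fitted curve at half-maximal effect; 0% = enzyme reaction without inhibitor and -100% = no enzyme wells; top concentration of the series not given in the record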
#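 Compounds were incubated with enzyme (final 15 nM) for 15 min at room temperature before substrate addition started the reaction. Fluorescence at 525 nm excitation, 598 nm emission was recorded immediately and after 30 minutes.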
# D2 PAM – potentiates the human D2 dopamine receptor allosterically; P14416; DiscoveRx D2 beta-arrestin cells, luminescence, 90 min; 100% = 57 uM dopamine signal; potentiation, % (no concentration beside the values); actives 0.23% (n = 360,000); AID 624464; active = potentiation of 50% or more; inconclusive = 30% to 50%; inactive = 30% or less;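 also: compound concentration not given in the record; tested on top of an EC20 dose of dopamine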
# Target sequence (P14416 whole entry, looked up): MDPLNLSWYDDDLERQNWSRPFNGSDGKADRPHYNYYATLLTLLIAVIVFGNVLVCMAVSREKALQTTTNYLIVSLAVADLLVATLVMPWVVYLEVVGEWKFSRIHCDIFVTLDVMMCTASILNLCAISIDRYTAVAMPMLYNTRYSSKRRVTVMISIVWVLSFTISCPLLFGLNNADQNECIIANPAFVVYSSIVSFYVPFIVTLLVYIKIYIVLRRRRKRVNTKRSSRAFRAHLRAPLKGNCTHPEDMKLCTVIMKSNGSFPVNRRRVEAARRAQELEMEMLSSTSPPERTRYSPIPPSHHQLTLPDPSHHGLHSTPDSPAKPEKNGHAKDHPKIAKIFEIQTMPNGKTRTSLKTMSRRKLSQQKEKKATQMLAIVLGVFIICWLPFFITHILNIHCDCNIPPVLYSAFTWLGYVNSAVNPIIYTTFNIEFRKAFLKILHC
#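 PathHunter D2 cells, attached overnight at 37 deg C, received compound in DMSO plus dopamine at EC20 (50 nM final) for 90 min at 37 deg C. Beta-arrestin recruitment was read as luminescence after 1 h with detection reagent at ambient temperature.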
# * marks the source's active call; other numbers are inactive results; ? = inconclusive; . = no result given; [ ] = dose if it differs, or a comment.
SMILES,TRPV1 potentiator,gsp ag,gsp antag,Menin-MLL FL inh,ClpP mod,Sfp PPTase inh,D2 PAM
CCOC(=O)C1CCCN(C(=O)c2sc3nc(-c4ccc(F)cc4)cn3c2C)C1 (stereo unspecified),9,22%,-30%,-1.0,-2.9%,-3%,-28
CC(CN1CCOCC1)OC(=O)C(C)(c1ccccc1)c1ccccc1 (stereo unspecified),-19,-3%,-12%,0.4,-1.7%,5%,-4
CCOC(=O)Cc1csc(NC(=O)c2sc3nc4cc(C)ccc4cc3c2N)n1,2,21%,-2%,?,3.5%,?,-6
CCc1ccc(C2C(=O)c3ccccc3C2=O)cc1,.,14%,-8%,.,.,.,-1
Cc1ccc(Nc2nnc(SCC(=O)c3ccc(O)cc3O)s2)cc1,-20,20%,-29%,-1.4,.,-5%,-2
Cn1ccnc1CC(C)(O)c1ccccc1 (stereo unspecified),.,20%,.,.,0.1%,.,-5
O=C(Nc1ccccc1C(F)(F)F)C1CCN(C(=O)c2cccs2)CC1,8,-24%,5%,-2.5,.,14%,-5
CC(C)c1ccc(NC(=O)COC(=O)c2nn(C)c(=O)c3ccccc23)cc1,.,2%,-25%,.,3.1%,.,-15
CCCC12C(=O)C(C)(C(c3ccccc3)=C1c1ccccc1)C1C(=O)N(c3ccc(C)cc3)C(=O)C12 (stereo unspecified),7,-32%[inhibitor],9%,-3.7,-2.1%,9%,-7
COc1cc(/C=N/NC(=O)c2ccc(CN3C(=O)c4cccc5cccc3c45)cc2)cc(OC)c1O,0,?,-1%,0.3,0.2%,?,6
CN(C)S(=O)(=O)c1cccc(-c2nnc3n2CCCCC3)c1,1,-12%,-1%,-0.9,0.1%,10%,-13
CCOc1ccc(NC(=O)Cc2ccccc2)c([N+](=O)[O-])c1,-18,-8%,19%,2.5,?,11%,3
COc1ccc(NC(=O)C(Cc2ccccc2)NC(=O)c2ccco2)cc1OC (stereo unspecified),15,?,9%,3.7,-0.1%,-2%,-5
Cc1ccc(C2=NOC(=O)/C2=C\c2ccccc2)cc1,.,1%,-8%,.,0.5%,.,-2
NC(=O)c1ccc(NCC2CCCO2)c([N+](=O)[O-])c1 (stereo unspecified),2,-8%[15.4 µM],6%,-13,.,-98%,0
Cc1onc(-c2ccccc2)c1C(=O)OCCOc1ccccc1F,-7,-16%[15.4 µM],-12%,-5.6,137%,-2%,-4
CC(C)(C)OC(=O)NCCCCCNC(=O)c1[nH]cnc1C(=O)Nc1ccon1,3,-13%,-3%,.,-3.7%,.,2
Cc1ccc(S(=O)(=O)N2CCCCC2)cc1NC(=O)CSc1nncn1-c1ccccc1,21,-4%[15.4 µM],6%,0.9,.,14%,-8
NC(=O)/C(=C\c1ccco1)NC(=O)c1ccco1,.,-5%,.,.,1.0%,.,-15
Cc1cc(C(=O)CSc2nnc(N)s2)c(C)n1C1CC1,-13,0%[15.4 µM],?,.,.,.,-4
Cc1ccc([N+](=O)[O-])cc1NC(=O)C1CCCC1,1,?,19%,-2.7,.,7%,-12
CN1CCN(c2ccc(NC(=O)c3ccc4c(c3)OCCO4)cc2Cl)CC1,-2,-51%[inhibitor],20%,0.2,-3.0%,16%,-20
CCn1cc(/C=C2/SC(=S)NC2=O)c(C)n1,-11,-43%,-20%,15,-0.8%,2%,7
CCN(CC)S(=O)(=O)c1ccc(NC2CCN(Cc3ccccc3)CC2)nc1,-11,21%,5%,-4.1,.,-6%,-7
Cc1nn(C)c(=O)n1-c1ccc(OCc2ccccc2)cc1,-16,-20%,1%,0.6,0.7%,12%,1

# Grouped by structure, those above containing a furan ring, fused or not (2)
SMILES,TRPV1 potentiator,gsp ag,gsp antag,Menin-MLL FL inh,ClpP mod,Sfp PPTase inh,D2 PAM
COc1ccc(NC(=O)C(Cc2ccccc2)NC(=O)c2ccco2)cc1OC (stereo unspecified),15,?,9%,3.7,-0.1%,-2%,-5
NC(=O)/C(=C\c1ccco1)NC(=O)c1ccco1,.,-5%,.,.,1.0%,.,-15

# Fetched one by one from above:
SMILES,TRPV1 potentiator,gsp ag,gsp antag,Menin-MLL FL inh,ClpP mod,Sfp PPTase inh,D2 PAM
CC(C)c1ccc(NC(=O)COC(=O)c2nn(C)c(=O)c3ccccc23)cc1,.,2%,-25%,.,3.1%,.,-15
CCOC(=O)C1CCCN(C(=O)c2sc3nc(-c4ccc(F)cc4)cn3c2C)C1 (stereo unspecified),9,22%,-30%,-1.0,-2.9%,-3%,-28

# Limited to gsp antag, Menin-MLL FL inh and D2 PAM, for some of the entries so far:
SMILES,gsp antag,Menin-MLL FL inh,D2 PAM
CCn1cc(/C=C2/SC(=S)NC2=O)c(C)n1,-20%,15,7
CC(C)c1ccc(NC(=O)COC(=O)c2nn(C)c(=O)c3ccccc23)cc1,-25%,.,-15

# (listing goes on)
SMILES,TRPV1 potentiator,gsp ag,gsp antag,Menin-MLL FL inh,ClpP mod,Sfp PPTase inh,D2 PAM
Cc1c(NC(=O)CC2NC(=O)NC2=O)c(=O)n(-c2ccccc2)n1C (stereo unspecified),1,.,.,-0.2,.,24%,.
COc1ccccc1CNC(=O)Cn1cc([N+](=O)[O-])ccc1=O,0,22%,11%,.,0.4%,20%,-4
CC(=O)N1CCc2cc(S(=O)(=O)NCCC(=O)NCCc3ccc(C)cc3)ccc21,13,0%,?,-0.6,0.6%,0%,3
Cc1ccc(CN2C(=O)C(=O)N(CC(N)=O)C2=O)cc1,?,-23%,12%,1.7,1.4%,5%,-11
Cc1ccc(NC(=O)N2C3CCCC2CC(NC(=O)C2CC2)C3)cc1 (stereo unspecified),5,3%[15.4 µM],8%,1.9,.,4%,3
CC(C)C(=O)Nc1cccc(C(=O)Nc2ccc(S(=O)(=O)N3CCOCC3)cc2)c1,-14,8%[15.4 µM],-1%,-16,1.6%,14%,10
Nc1ccc(Sc2ccccc2CC(=O)O)cc1,-3,.,.,4.5,.,3%,.
Cc1cc2nc(/C=C/c3cccnc3)[nH]c2cc1C,-21,-26%,12%,2.7,3.8%,-10%,-10
CC1CN(C(=O)Nc2ccc(Br)cc2Cl)CC(C)O1 (stereo unspecified),2,-12%[15.4 µM],.,4.5,.,1%,-5
COc1ccc(N2CCN(C(=O)Cn3cnc4c3c(=O)n(C)c(=O)n4C)CC2)cc1,9,11%[15.4 µM],.,0.6,.,3%,-39
Cc1ccc(C)c(NC(=O)NCCN2CCCCC2)c1,-1,-8%,5%,1.8,.,15%,-24
COc1cc(/C=N/NC(=O)c2cccc(S(=O)(=O)N3CCCC3)c2)cc(OC)c1O,-21,-33%[inhibitor],2%,.,-4.1%,.,?
COc1ccc(Nc2nc(-c3cccs3)nc3ccccc23)cc1S(=O)(=O)N1CCOCC1,.,25%,-4%,.,-0.8%,.,17
CCN(c1ccccc1)S(=O)(=O)c1ccc(C(=O)NCCCn2ccnc2)cc1,25,?,1%,-2.9,.,24%,-8
O=[N+]([O-])c1ccc(Sc2ccccc2)nc1,-8,-6%[15.4 µM],7%,-5.7,-2.9%,12%,2
CCOc1ccc(NC(=O)CSc2nnc(Cc3ccccc3)c(=O)n2N)cc1,-15,1%,-13%,.,1.5%,.,-22
Cc1ccc(C(=O)C(c2ccccc2)N2Cc3ccccc3C2=N)cc1 (stereo unspecified),-1,3%,?,2.2,3.2µM*,?,-25
COc1ccc(/C(C)=N/Nc2cccc(C(=O)O)c2)cc1OC,2,1%[15.4 µM],2%,-2.8,0.7%,-1%,-3
Nc1ccc(Sc2ccccc2)nc1,.,5%[15.4 µM],2%,.,.,.,-12
Cc1onc(-c2ccccc2)c1C(=O)Nc1nnc(N2CCCCCC2)s1,?,4%,-14%,6.3,0.0%,-25%,-4
O=C(NC1CCCCC1)c1cc(S(=O)(=O)N2CCCC2)ccc1Cl,9,13%,5%,2.8,.,18%,-4
CC1C/C(=C/c2cccn2C)C(=O)/C(=C/c2cccn2C)C1 (stereo unspecified),-3,27%,-11%,?,0.1%,?,-21
COc1cccc(CNC(=O)CCC2CCCN(c3cc(C)nc(N(C)C)n3)C2)c1 (stereo unspecified),-19,2%,2%,0.2,.,26%,-8
CCON1C(=O)C2(CCCCC2)C(=O)C12C=CCCC2 (stereo unspecified),.,-1%,-19%,.,-1.0%,.,3
O=C(O)c1cccc(Nc2nc3ccccc3nc2NS(=O)(=O)c2ccc(F)cc2)c1,.,?,-4%,.,-20%,.,2
SMILES,TRPV1 potentiator,gsp ag,gsp antag,Menin-MLL FL inh,ClpP mod,Sfp PPTase inh,D2 PAM
CCOC(=O)CSC1=C(C#N)C(c2ccc(C)o2)CC(=O)N1 (stereo unspecified),-6,6%,5%,1.0,-0.7%,-17%,-5
CCCOc1ccccc1/C=C1\SC(N)=NC1=O,-54,-69%[inhibitor],1%,?,.,9%,-20
Cc1cccc(C)c1NC(=O)CNC(=O)c1ccc(S(=O)(=O)NCc2ccco2)cc1,8,-5%,1%,.,1.0%,.,-2
COc1ccc(CCN2C(=O)CS/C2=N/NC(=O)c2ccccc2F)cc1OC,13,5%,1%,9.1,0.0%,3%,-4
Cc1ccc(-c2onc(C)c2C)cc1S(=O)(=O)N1CCOc2ccccc21,-23,-30%[inhibitor],-17%,-0.2,-2.1%,0%,-5
COc1ccc(C(=O)OCCc2sc[n+](CC(=O)c3ccccc3)c2C)cc1,14,3%[15.4 µM],-2%,0.4,.,4%,-9
CC(Sc1nc2cc([N+](=O)[O-])ccc2n1-c1ccc(F)cc1)C(=O)NCc1ccc2c(c1)OCO2 (stereo unspecified),1,29%,-8%,6.2,?,2.2µM*,-17
O=[N+]([O-])c1cccc(OCC(O)CN2CCN(S(=O)(=O)c3cc(Cl)ccc3Cl)CC2)c1 (stereo unspecified),3,?,0%,3.0,.,-2%,-4
CCC(C)C(NC(=O)C1CCC(=O)N1C(=O)OCc1ccccc1)C(=O)NC(Cc1ccccc1)C(N)=O (stereo unspecified),1,?,6%,0.5,.,4%,2
CSCCC(C(=O)N1CC2(C)CC1CC(C)(C)C2)N1C(=O)c2ccccc2C1=O (stereo unspecified),-44,-25%,-22%,1.1,-3.3%,-7%,9

# From PubChem BioAssay
